Source: PubChem (National Center for Advancing Translational Sciences (NCATS))
D2 potentiator: human D2 receptor positive allosteric modulation; P14416; DiscoveRx D2 beta-arrestin cells, luminescence, 90 min; 100% = 57 uM dopamine signal; potentiation, % (test concentration not listed); 0.23% of 360,000 active; AID 624464; active = potentiation of 50% or more; inconclusive = 30% to 50%; inactive = 30% or less;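 note: compound concentration not given in the record; tested on top of an EC20 dose of dopamine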
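PathHunter beta-arrestin assay in DiscoveRx D2 cells. Compounds were added with an EC20 of dopamine (50 nM final) for 90 min at 37 deg C. Luminescence was read 1 h after detection reagent, with 57 uM dopamine as the EC100 control.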
CtBP-E1A blk: inhibitors of CtBP/E1A interaction; AID 651724; activity change, % (concentration not given with the values); AlphaScreen GST-E1A/His-CtBP binding, 1536-well; active compounds read low; control for the full effect not named in the record; 0.49% of 340,000 active; in the data active means activity change below about -65%; inconclusive means about -30% to -65%; inactive means above about -30%; note: % is set by controls: 0 for no effect and ±100 for the full control effect
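Protein mix (5X: 125 nM each GST-E1A, His-CtBP) was incubated with pinned compound 2 h at 37 deg C in dark, in 50 mM Tris pH 8.0 buffer with 300 mM NaCl. Glutathione donor and nickel acceptor beads followed; AlphaScreen signal read after 1 h.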
gsp ag: agonists of gsp mutant (McCune-Albright syndrome). gsp mutant cells, cAMP HTRF, 30 min; control for the full effect not named in the record. 0.13% of 340,000 active. Potency, µM (doses to about 76.9 µM), for the others: at the highest dose activation (cAMP increase), usual class: activators; active = well fitted activation curve with a large enough effect; inconclusive = small, poorly fitted or top-dose-only effect, or another doubt; inactive = no such curve, though single readings can be large or run the other way; cell line not stated here;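 note: phosphodiesterase inhibitor Ro 20-1724 added with compounds to block cAMP breakdown; potency is the fitted concentration of half-maximal effect; nearly all actives have a fitted effect of over 60% in size; about a fifth of the inactives were tested at one dose only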
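Cells in DMEM/10% FBS with G418 were pretreated with compounds in DMSO plus […] (300 uM stock) for 30 min at 37C. cAMP was measured by HTRF (cAMP-d2 plus anti-cAMP antibody-K) after 30 min at room temperature.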
gsp antagonist: antagonizes gsp, the McCune-Albright syndrome mutation; gsp-mutant cells, cAMP HTRF, 30 min; control for the full effect not named in the record; Potency, µM (top dose mostly 76.9 µM), for the others: at the top dose activity change, negative = inhibition, hits mostly inhibitors; 0.4% of 340,000 active; active = falling curve of any shape with a large fitted effect; inconclusive = falling curve, mostly with a smaller effect; inactive = flat or rising curve; cell line not stated here;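 note: intracellular cAMP measured with PDE inhibitor Ro 20-1724 present during compound exposure; potency is the fitted concentration of half-maximal effect; % is set by controls: 0 for no effect and ±100 for the full control effect; nearly all actives have a fitted effect of over 65% in size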
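Cells in G418 medium, seeded 16-24 h, 37C; buffer exchange to DPBS + 1 mM CaCl2, 0.5 mM MgCl2, 0.05% BSA; cpds in DMSO + […] (300 uM stock), 30 min 37C; HTRF cAMP detection.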
Six1-Eya2 inh: blocks human Six1 binding to Eya2 | AlphaScreen GST-Six1/His-Eya2 binding, biochemical; active compounds read low; control for the full effect not named in the record | activity change, % (test concentration not listed) | 0.56% of 360,000 active | AID 651725; in the data active = activity change below about -65%; inconclusive = about -30% to -65%; inactive = above about -30%; note: % is set by controls: 0 for no effect and ±100 for the full control effect
Target sequence (O00167 whole entry, looked up): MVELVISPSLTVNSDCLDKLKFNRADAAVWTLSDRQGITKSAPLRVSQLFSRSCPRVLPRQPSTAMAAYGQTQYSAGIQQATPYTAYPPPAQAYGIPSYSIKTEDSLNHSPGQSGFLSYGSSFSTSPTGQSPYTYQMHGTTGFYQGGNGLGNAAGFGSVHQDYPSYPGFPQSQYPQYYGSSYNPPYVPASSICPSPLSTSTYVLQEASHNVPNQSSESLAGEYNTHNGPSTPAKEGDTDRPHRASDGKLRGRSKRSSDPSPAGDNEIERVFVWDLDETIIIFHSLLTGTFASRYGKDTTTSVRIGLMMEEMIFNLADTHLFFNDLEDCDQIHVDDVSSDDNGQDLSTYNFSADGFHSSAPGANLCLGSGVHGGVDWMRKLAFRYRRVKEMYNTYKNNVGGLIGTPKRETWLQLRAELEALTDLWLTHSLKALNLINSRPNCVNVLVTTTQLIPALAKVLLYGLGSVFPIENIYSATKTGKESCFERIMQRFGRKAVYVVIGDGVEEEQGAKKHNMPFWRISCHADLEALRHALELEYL
Target sequence (Q15475 whole entry, looked up): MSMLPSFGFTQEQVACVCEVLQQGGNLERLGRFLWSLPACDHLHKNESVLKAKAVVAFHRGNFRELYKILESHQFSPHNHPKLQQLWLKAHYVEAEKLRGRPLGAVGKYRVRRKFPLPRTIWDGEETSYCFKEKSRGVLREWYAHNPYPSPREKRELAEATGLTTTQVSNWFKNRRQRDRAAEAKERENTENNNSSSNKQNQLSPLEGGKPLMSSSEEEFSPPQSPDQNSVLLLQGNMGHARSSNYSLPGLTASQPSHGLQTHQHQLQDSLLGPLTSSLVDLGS
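Homogeneous AlphaScreen proximity assay pairing GST-Six1 with His-tagged Eya2 (added as 5X mix: 250 nM and 500 nM) in 50 mM Tris pH 8.0, 300 mM NaCl, 1 mM TCEP. Glutathione donor and nickel acceptor beads; 1 h, 37 °C, dark.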
D2 ag: agonists of human D2 dopamine receptor (beta-arrestin); DiscoveRx PathHunter D2 beta-arrestin, luminescence, 90 min; 100% = 57 uM dopamine signal; activation, % (concentration not given with the values); 0.084% of 360,000 active; AID 624465; in the data active = activation above about 40%; inconclusive = about 15% to 40%; inactive = below about 15%; note: compound concentration not given in the record; the text of the record calls up to 30% inactive
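DiscoveRx PathHunter D2 beta-arrestin cells (2,100/well) attached overnight, then compound-stimulated 90 min at 37 C in HBSS/10 mM HEPES/0.1% Tween-20 buffer; beta-galactosidase complementation read by luminescence after 1 h at ambient temperature. Dopamine 57 uM final (EC100) as control.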
* = called active by the depositor; ? = inconclusive; · = no result given; [ ] = dose if it differs, or a comment.

A first look:
Compound | D2 potentiator | CtBP-E1A blk | Six1-Eya2 inh | gsp antagonist | D2 ag | gsp ag
CCC(=O)Nc1cc2c(cc1Cl)-c1ccccc1C2 | -6 | 2 | -9 | -4% | -2.0 | -1%[15.4 µM]
CCC(CC)C(=O)c1c[nH]c(C(=O)N2CCN(c3ccccc3)CC2)c1 | -6 | -13 | -1 | 8% | -6.6 | -13%[15.4 µM]
Cn1c(=O)c2c(ncn2CC(=O)N2CCCc3ccccc32)n(C)c1=O | 23 | 0 | 0 | 9% | -3.6 | ?

All compounds of this part, from the start:
Compound | D2 potentiator | CtBP-E1A blk | Six1-Eya2 inh | gsp antagonist | D2 ag | gsp ag
CCC(=O)Nc1cc2c(cc1Cl)-c1ccccc1C2 | -6 | 2 | -9 | -4% | -2.0 | -1%[15.4 µM]
CCC(CC)C(=O)c1c[nH]c(C(=O)N2CCN(c3ccccc3)CC2)c1 | -6 | -13 | -1 | 8% | -6.6 | -13%[15.4 µM]
Cn1c(=O)c2c(ncn2CC(=O)N2CCCc3ccccc32)n(C)c1=O | 23 | 0 | 0 | 9% | -3.6 | ?
CCCCNC(=O)N1CCN(Cc2ccc(F)cc2)CC1 | -1 | 8 | 1 | 10% | -5.6 | ?
Cc1cc(C(=O)N(C)CC2CCCN(CCc3ccc(F)cc3)C2)c(C)o1 (configuration not stated) | -23 | -10 | -4 | 6% | 3.0 | 1%
CC1(C)O[C@H]2OC([C@H](O)CON3C(=O)c4ccccc4C3=O)[C@H](O)[C@H]2O1 (some centres not stated) | -13 | · | 3 | 9% | -3.9 | 2%
O=C(Nc1ccccc1N1CCOCC1)c1cccc(S(=O)(=O)Nc2ccccc2F)c1 | 1 | -1 | -1 | ? | 4.9 | 3%
COc1ccc(CNc2nc3c(c(=O)[nH]c(=O)n3C)n2Cc2ccccc2)cc1 | -10 | · | 4 | -1% | 2.1 | -1%
CCn1c(SCC(=O)N/N=C/c2cccs2)nc2ccccc21 | -14 | · | -6 | 27% | 1.5 | -17%
N#CCSc1nc(N)c(C#N)c(C2CCCCC2)c1C#N | 0 | -3 | 7 | 0% | -0.5 | -50%[inhibitor]
O=C(CN(C(=O)CCC(=O)Nc1ccccn1)c1ccc2c(c1)OCO2)NCc1ccc(F)cc1 | -6 | -13 | -7 | 4% | -1.0 | 0%[15.4 µM]
O=C(O)c1ccccc1-c1ccccc1C(=O)Nc1nc2ccccc2s1 | -4 | 4 | -3 | -2% | -2.2 | 8%[15.4 µM]
Cc1ccc(NS(=O)(=O)c2cc3c4c(cccc4c2)C(=O)NC3=O)cc1 | -5 | 3 | -1 | 8% | -3.4 | 13%
COC(=O)C1(C)CCCC2(C)C3CCC(C(C)C)C(CO)C3C(CO)CC12 (configuration not stated) | 6 | 0 | -1 | · | 9.1 | 6%
O=C(NCc1ccccc1)C(c1ccccc1)N(Cc1cccs1)C(=O)c1cnccn1 (configuration not stated) | -6 | 0 | 2 | ? | -1.5 | 4%
Cc1ccc2c(c1)N(CC(=O)N1CCOCC1)C(=O)CO2 | -1 | -11 | 9 | 9% | 6.3 | 4%
CSc1ccccc1NC(=O)c1ccccc1C | -9 | -12 | 6 | 0% | -18 | -63%[inhibitor]
Cc1cc(SCC(=O)N/N=C/c2ccc(O)cc2O)nc2ccccc12 | -9 | ? | ? | 35µM* | -0.9 | ?
Cc1ccc(S(=O)(=O)N2CCOCC2)cc1NC(=O)COC(=O)COc1ccccc1[N+](=O)[O-] | -5 | -11 | 0 | -3% | -5.1 | -20%
Cc1cccc(OCCC(=O)N(C)CC(=O)Nc2cccc3ccccc23)c1 | -8 | -11 | 1 | -8% | -3.7 | 23%
CCN(Cc1ccccc1)C(=O)c1ccc2c(=O)n3c(nc2c1)CCC3 | -10 | -12 | -29 | 3% | -6.2 | -36%[inhibitor]
COc1ccc(NC(=O)CN(C)C(=O)c2c(-c3c(F)cccc3Cl)noc2C)cc1 | -7 | 2 | 3 | -6% | -0.8 | 2%
COc1ccc(C(=O)NNC(=S)NC(=O)c2ccc(F)cc2)cc1Br | -9 | · | 2 | 2% | 7.6 | 1%
CC1(C(=O)NS(=O)(=O)c2ccc(F)cc2F)CCN1C(=O)CC1CCCC1 (configuration not stated) | -2 | 0 | 9 | · | -4.6 | ·
Cc1ccc(S(=O)(=O)N(C)C)cc1NC(=O)COC(=O)/C=C/c1cnc2ccccc2n1 | -1 | -6 | -5 | ? | -4.7 | 10%
CC12CN3CC(C)(CN(C1)C3c1cc3ccccc3[nH]1)C2=O (configuration not stated) | 4 | 1 | 5 | 7% | -1.7 | -65%[inhibitor]
Cc1cc(C)cc(NC(=O)CCCN2C(=O)C(c3ccccc3)Oc3cccnc32)c1 (configuration not stated) | -18 | 3 | -1 | -15% | 1.9 | -13%
CCOC(=O)C1(Cc2ccc(OC)cc2)CCN(C(=O)c2cc3ccccc3[nH]2)CC1 | -3 | 3 | -9 | -18% | 1.5 | 24%
COC(=O)C1=C(CSc2nc3ccccc3o2)NC(=O)NC1c1cc(C)ccc1C (configuration not stated) | 26 | -22 | -18 | -6% | 1.9 | -56%[inhibitor]
COc1ccc(NC(=S)N(CCC(C)C)C2CCN(C(C)C)CC2)cc1Cl | -17 | -9 | 1 | -1% | -4.3 | -38%[inhibitor]
Cc1ccc(-n2c(Cn3cnc4ccccc43)nnc2SCC(=O)O)cc1 | -6 | 7 | 5 | 13% | -0.2 | -7%
O=C(NNc1nc2ccccc2s1)c1ccc(F)cc1 | 17 | 6 | -2 | 5% | -6.4 | 8%
S=c1[nH]nc(-c2ccccn2)n1/N=C/c1ccccc1 | -5 | -4 | ? | -5% | -4.7 | -1%
COC(=O)c1cccc(Cn2c(Cl)c(/C=N/Nc3ccccc3C)sc2=O)c1 | -10 | 5 | -22 | 0% | 3.5 | -3%
N#CC(c1ccc(Cl)cc1)c1nc2ccccc2nc1C(F)(F)F (configuration not stated) | -33 | -5 | -14 | -8% | -3.7 | 3%
O=C(CCS(=O)(=O)c1cccc2nonc12)NC1CCCCCC1 | -3 | -1 | 1 | 5% | -0.7 | 10%
CCOc1ccc(C(=O)OCC(=O)NCCNC(=O)COC(=O)c2ccc(OCC)cc2)cc1 | -6 | -7 | 15 | 8% | -3.2 | -21%[15.4 µM]
Cc1cccc(NC(=O)c2nc[nH]c2C(=O)Nc2ccccc2F)c1 | · | 3 | -3 | · | 0.4 | -26%
COc1ccccc1C(=O)N1CCN(C(=O)c2ccncc2)CC1 | -7 | 3 | -2 | 8% | -4.5 | 8%
CC(C)(C)C1CCC(=NNS(=O)(=O)c2ccc(Br)cc2)CC1 (configuration not stated) | -3 | -2 | -1 | -6% | -4.4 | 0%
COC(=O)c1sccc1NC(=O)CSCCc1ccncc1 | -5 | 9 | -18 | 18% | -3.3 | -7%[15.4 µM]
N/C(COc1ccc(Cl)cc1Cl)=N\NS(=O)(=O)c1ccccc1 | 0 | -2 | -16 | 18% | -1.8 | -53%[inhibitor]
COc1ccc(C(=O)NCCNc2nc3c(C)cccc3cc2C#N)cc1 | -2 | · | 5 | -14% | 2.4 | -15%
O=C(C1=C[C@H](c2ccc3c(c2)OCO3)C[C@H](OCCCCO)O1)N1CCN(Cc2ccccc2)CC1 | -29 | 2 | 13 | -14% | 3.4 | ·
CCC(CC)c1nnc(NC(=O)C2CSC3(C)CCC(=O)N23)s1 (configuration not stated) | 26 | 8 | 4 | 5% | -0.1 | -42%[inhibitor]
O=C(c1cccc2ccccc12)N1CCN(c2ccc([N+](=O)[O-])c(NCc3ccco3)c2)CC1 | 0 | -7 | -10 | -13% | 1.6 | -37%[inhibitor]
COc1cccc(OC)c1C(=O)Nc1ccccc1C(=O)N1CCOCC1 | 1 | -1 | 1 | 7% | -1.4 | 0%
Nc1ncnc2c1ncn2[C@@H]1O[C@H](C(=O)N2CCN(c3ccc(Cl)cn3)CC2)[C@@H](O)[C@H]1O | -6 | 0 | 27 | · | -3.0 | ·
NC(=O)Cc1ccc(C(=O)CSc2nnc(-c3ccncc3)n2C2CC2)s1 | -1 | -13 | ? | -1% | -0.1 | 9%
CN1CCN(CC(O)COC(c2ccccc2)c2ccccc2)CC1 (configuration not stated) | -6 | 3 | 12 | -9% | -4.2 | 11%[15.4 µM]

The list goes on.
Compound | D2 potentiator | CtBP-E1A blk | Six1-Eya2 inh | gsp antagonist | D2 ag | gsp ag
O=C(CN1C(=O)c2ccccc2S1(=O)=O)NCCc1ccccc1 | -11 | -9 | -1 | 5% | -4.3 | -3%[15.4 µM]
Cc1ccc(NC(=O)CSc2ccc3nnc(CCNC(=O)c4ccccc4)n3n2)c(C)c1 | -6 | -3 | -9 | -9% | -1.9 | -5%[15.4 µM]
COc1ccc(CN2CCNC(=O)C2CC(=O)NCCCn2cccn2)cc1C (configuration not stated) | 1 | -7 | 7 | 6% | -0.7 | -7%
CC(C)(C)C(=O)Nc1ccc(N2CCN(C(=O)c3cccs3)CC2)cc1 | 0 | 3 | 7 | · | -1.4 | -10%
COc1cccc(C(O)c2nc(-c3ccc(C)c(C)c3)cs2)c1 (configuration not stated) | -11 | -17 | 4 | · | -3.7 | ·
COc1cc(NC(=O)c2ccno2)cc(C(=O)Nc2cccc(C(F)(F)F)c2)c1 | -8 | · | -5 | ? | 2.5 | ?
O=C(CSc1nc2ccccc2c(=O)[nH]1)Nc1ccc(C(=O)O)cc1 | 0 | 1 | -20 | -14% | -6.3 | 8%[15.4 µM]
COc1ccc(S(=O)(=O)Nc2c(C)nc3nc(C)[nH]n3c2=O)cc1 | 2 | -8 | 5 | 10% | 3.5 | 0%
O=C(OCC(=O)N1CCN(c2ccccc2)CC1)c1ccco1 | 13 | 8 | -3 | 11% | -2.4 | -5%[15.4 µM]
S=C(NCc1ccccc1)N1CCc2ccccc2C1 | -6 | 11 | -8 | 4% | -1.1 | 6%[15.4 µM]
CN(N=Nc1cccc([N+](=O)[O-])c1)c1cccc([N+](=O)[O-])c1 | -1 | -5 | -7 | -10% | 1.5 | 4%
CC(=O)C1=C(Nc2ccccc2)CC(C)(O)C(C(C)=O)C1c1ccccc1 (configuration not stated) | -11 | 0 | 15 | 3% | -4.6 | -13%[15.4 µM]
O=C(CCc1nc2ccccc2s1)NCc1ccccc1F | -4 | -18 | 3 | -1% | -4.8 | 19%
CCc1cc2ccc(C)c(C)c2nc1SCC(=O)Nc1cc(C)on1 | -5 | 3 | 5 | 10% | -4.1 | 6%[15.4 µM]
